Compound activity: PubChem, National Center for Advancing Translational Sciences (NCATS)
D2 agonist: human D2 receptor agonism in beta-arrestin assay; P14416; DiscoveRx PathHunter D2 beta-arrestin, luminescence, 90 min; 100% = 57 uM dopamine signal; activation, % (no concentration beside the values); 360,000 tested, 0.084% active; in the data active = activation above about 40%; inconclusive = about 15% to 40%; inactive = below about 15%; also: compound concentration not given in the record; the text of the record calls up to 30% inactive
Target sequence (P14416 whole entry, looked up): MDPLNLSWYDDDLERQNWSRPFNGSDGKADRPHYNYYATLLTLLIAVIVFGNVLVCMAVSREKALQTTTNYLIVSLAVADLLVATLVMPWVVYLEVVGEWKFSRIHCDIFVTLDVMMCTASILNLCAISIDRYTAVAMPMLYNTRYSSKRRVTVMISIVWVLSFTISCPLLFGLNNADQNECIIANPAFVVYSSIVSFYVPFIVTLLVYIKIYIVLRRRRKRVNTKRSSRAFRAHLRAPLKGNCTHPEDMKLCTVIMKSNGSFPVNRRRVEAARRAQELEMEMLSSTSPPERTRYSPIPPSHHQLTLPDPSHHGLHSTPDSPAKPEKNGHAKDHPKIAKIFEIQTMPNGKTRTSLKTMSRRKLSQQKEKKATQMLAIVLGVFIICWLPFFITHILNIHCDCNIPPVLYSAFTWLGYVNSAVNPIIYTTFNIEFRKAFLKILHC
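DiscoveRx PathHunter D2 beta-arrestin cells (2,100/well) attached overnight, then compound-stimulated 90 min at 37 C in HBSS/10 mM HEPES/0.1% Tween-20 buffer; beta-galactosidase complementation read by luminescence after 1 h at ambient temperature. Dopamine 57 uM final (EC100) as control.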
ClpP mod: qHTS Assay for Activators of ClpP; purified B. subtilis ClpP, FRET peptide cleavage, 20 min; Potency, µM (series often up to 57.5 µM), without a hit: top-dose activity change, negative = active; ATP-dependent Clp protease proteolytic subunit (Bacillus subtilis (strain 168)), P80244; 340,000 tested, 1.9% active; active = well fitted falling curve with a large enough effect; inconclusive = small, poorly fitted or top-dose-only effect; inactive = no such curve, though single readings can be large or run the other way; also: potency is read from the fitted curve at half-maximal effect; the source files actives as falling curves though it sought activators and does not explain the sign; nearly all actives have a fitted effect of over 65% in size; many hits overshoot -100%
Target sequence (P80244 whole entry, looked up): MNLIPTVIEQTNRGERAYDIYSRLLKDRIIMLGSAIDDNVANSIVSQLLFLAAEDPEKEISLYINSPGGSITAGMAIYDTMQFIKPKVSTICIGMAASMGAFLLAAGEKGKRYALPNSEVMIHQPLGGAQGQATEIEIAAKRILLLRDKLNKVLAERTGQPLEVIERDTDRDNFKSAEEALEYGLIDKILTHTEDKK
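FRET quenching reversal measured ClpP activation: 10 microg/mL B. subtilis ClpP at pH 8 with the FRET-FV decapeptide, read at 430 nm after 320 nm excitation. The 20-min minus 0-min signal was scaled between DMSO/no-enzyme wells and ADEP (5.8 microM final).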
gsp antag: gsp mutant antagonism; gsp-mutant cells, cAMP HTRF, 30 min; control for the full effect not named in the record; Potency, µM (top dose mostly 76.9 µM), for the others: at the top dose activity change, negative = inhibition, actives largely listed as inhibitors; 340,000 tested, 0.4% active; AID 624288; active = falling curve of any shape with a large fitted effect; inconclusive = falling curve, mostly with a smaller effect; inactive = flat or rising curve; cell line not stated here;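 also: intracellular cAMP measured with PDE inhibitor Ro 20-1724 present during compound exposure; potency is read from the fitted curve at half-maximal effect; % is scaled to controls: 0 for no effect and ±100 for the full control effect; nearly all actives have a fitted effect of over 65% in size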
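HTRF cAMP read-out (cAMP-d2 plus anti-cAMP antibody-K in lysis buffer, 30 min RT). Before lysis, cells are exposed to compounds with […] for 30 min at 37C in DPBS containing Ca/Mg, BSA and Tween 20.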
Sfp PPTase inh: blocks B. subtilis Sfp PPTase activity; Q9F4F7; Biochemical Sfp PPTase activity, qHTS; Potency, µM, inactives show max response, negative = inhibition, actives largely listed as inhibitors; 310,000 tested, 3.5% active; AID 1490; active = well fitted inhibition curve with a large enough effect; inconclusive = small, poorly fitted or top-dose-only effect, or another doubt; inactive = no such curve, though single readings can be large or run the other way;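 also: the enzyme is Sfp with the accession as filed and its product quenches rhodamine fluorescence; potency is read from the fitted curve at half-maximal effect; 0% = enzyme reaction without inhibitor and -100% = no enzyme wells; top concentration of the series not given in the record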
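Step 1, compound plus 15 nM Sfp-PPTase, 15 min, room temperature. Step 2, add rhodamine-CoA (5 uM) and BHQ-2-YbbR (12.5 uM). Step 3, read 525/598 nm fluorescence at 0 and 30 min.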
PINK1 modulator: changes PINK1 expression; PINK1 immunofluorescence, high-content cytometry, 24 h; Potency, µM (highest dose often 76.6 µM), without a hit: top-dose activation (PINK1 increase), hits mostly activators; 410,000 tested, 0.2% active; AID 624263; active = well fitted activation curve with a large enough effect; inconclusive = small, poorly fitted or top-dose-only effect; inactive = flat fitted curve, though single readings scatter; cell line not stated here;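 also: potency is read from the fitted curve at half-maximal effect; % of control where 0% means no effect; nearly all actives have a fitted effect of over 65% in size; a mitochondrial uncoupler was the plate control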
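PINK1 protein, normally rapidly degraded, was detected by immunofluorescence after 24 hour compound treatment of a stable cell line. Titration data (5 concentrations) came from laser-scanning cytometry, with CCCP-treated wells as controls.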
gsp ag: agonists of gsp mutant (McCune-Albright syndrome); gsp mutant cells, cAMP HTRF, 30 min; control for the full effect not named in the record; 340,000 tested, 0.13% active; Potency, µM (highest dose often 76.9 µM), without a hit: top-dose activation (cAMP increase), hits mostly activators; AID 624287; active = well fitted activation curve with a large enough effect; inconclusive = small, poorly fitted or top-dose-only effect, or another doubt; inactive = no such curve, though single readings can be large or run the other way; cell line not stated here;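 also: phosphodiesterase inhibitor Ro 20-1724 added with compounds to block cAMP breakdown; potency is read from the fitted curve at half-maximal effect; nearly all actives have a fitted effect of over 60% in size; about a fifth of the inactives were tested at one dose only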
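Cells stably selected in G418 were plated at 2000/well, grown 16-24 hr, then given compounds in DMSO with the PDE inhibitor […] (300 uM solution added) for 30 min at 37C; cAMP was read by HTRF.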
Menin MLL FP FL: inhibitors of human menin-MLL interaction, wild-type MLL peptide. FP activity change, % at 61.4 µM. AID 1766. 290,000 tested, under 10 active. Fluorescence polarization, fluorescein-MLL peptide displacement from menin; inconclusive = falling polarisation curve, or a change in total fluorescence; inactive = total fluorescence flat and polarisation flat or rising; no compound was filed as active; the % refers to the polarisation; negative = inhibition;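 also: % of control where 0% means no effect; inhibitors lower the polarisation; unlabelled MLL peptide was the positive control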
* = called active by the depositor; u = inconclusive; x = no result given; & = joins results of further samples; [ ] = another dose, or the depositor's remark.

item | Compound | D2 agonist | ClpP mod | gsp antag | Sfp PPTase inh | PINK1 modulator | gsp ag | Menin MLL FP FL
1 | COc1cc(Cl)c(C)cc1NC(=O)CSc1ccccc1 | -3.1 | x | -27% | -9% | 6.9% | 6%[15.4 µM] | 1.7
2 | O=C(NCCCN1CCOCC1)c1ccc2nc(Cc3cccc(Cl)c3)oc2c1 | 3.0 | -1.1% | 6% | 4% | 1.7% | 5%[15.4 µM] | x
3 | CC(=O)Nc1cc(-c2cccc(C(=O)NCCN(C)C)c2)cn2c(-c3ccc(F)c(Cl)c3)cnc12 | 2.9 | -7.2% | x | x | 0.8% | x | x
4 | CC(=O)N1CCN(Cc2nc3cc(Cl)ccc3c(=O)[nH]2)CC1 | 5.5 | -0.2% | 5% | -16% | 1.1% | -18%[15.4 µM] | -5.1
5 | Cc1nc2sc(C(c3cccc(F)c3)N3CCCC(C)C3)c(O)n2n1 (stereo unspecified) | -3.2 | 1.6% | -7% | -2% | 1.3% | 3% | 0.6
6 | CCOC(=O)CSc1nc(N)nc(C)c1Cl | 2.0 | x | x | -2% | -0.6% | -4%[15.4 µM] | -0.1
7 | CSc1ccccc1NC(=O)Cn1c([N+](=O)[O-])cnc1C | 0.9 | x | 4% | 21% | 0.7% | -8% | 2.4
8 | CC(C)C[C@H](NC(=O)[C@@H]1O[C@H]1C(=O)O)C(=O)NCCCCN=C(N)N | 1.1 | 2.2% | 8% | 7% | 1.0% | x | 1.9
9 | Nc1ncc(Br)cc1S(=O)(=O)NCCC(=O)N1CCN(c2ccccn2)CC1 | -0.9 | 0.5% | -1% | 17% | -1.2% | -5%[15.4 µM] | 7.3
10 | CN(C(=S)NC(=O)/C=C/c1ccc(F)cc1)C1CCCCC1 | -2.3 | x | 1% | -14% | 1.6% | 3%[15.4 µM] | 3.8
11 | C/C(=N/NS(=O)(=O)c1ccc(Br)cc1)c1cccc(NC(=O)C2CC2)c1 | -0.9 | -0.5% | x | x | 1.9% | 20% | x
12 | CCc1noc(C)c1C(=O)Nc1ccc(C(F)(F)F)cc1 | 0.8 | 0.7% | -1% | 18% | 0.4% | 14% | x
13 | COc1cccc(/C=C2\SC(=S)N(C(C(=O)O)c3ccccc3)C2=O)c1OC (stereo unspecified) | -2.7 | x | -14% | 79µM* | -0.1% | -1%[15.4 µM] | 3.2
14 | CC(O)(c1cccc(F)c1)c1nc(-c2ccc3c(c2)OCO3)cs1 (stereo unspecified) | 7.1 | -7.6% | x | x | 9.4% | x | x
15 | Nc1nc2c(ncn2C2CCCC2)c(=O)[nH]1 | -2.9 | x | 7% | x | -3.3% | 0% | x
16 | CN(Cc1ccco1)C(=O)C1CCC(=O)N(CCc2cccc(F)c2)C1 (stereo unspecified) | -4.8 | -2.5% | 5% | 20% | 0.5% | -1% | x
17 | COc1ccc(Nc2nc(N)nc(CSc3nnc(N)s3)n2)cc1 | 0.6 | -1.3% | 11% | 3% | -2.7% | 16% | 1.2
18 | CCC(CO)Oc1cc(NCc2ccc(OC)cc2)c2ncn(C(C)C)c2c1 (stereo unspecified) | 0.3 | 2.1% | 4% | x | 0.1% | 0% | x
19 | Oc1ccc(NCc2cccc(OCc3ccc(F)cc3)c2)cc1 | 8.9 | -3.5% | -15% | 16µM* | 2.8% | -48%[inhibitor] | -2.6
20 | O=C(Nc1cccc(Cl)c1)c1cccc(N2C(=O)C3CC=CCC3C2=O)c1 (stereo unspecified) | -1.2 | x | -29% | -7% | -1.0% | -14% | -1.6
21 | O=C(COC(=O)c1ccccc1NS(=O)(=O)c1ccc(Cl)cc1)NCc1ccccc1 | -2.8 | u | -10% | 20% | 1.6% | 0% | -4.6
22 | NC(Cc1ccc(C(F)(F)F)cc1)c1csc(Nc2cnccn2)n1 (stereo unspecified) | 1.1 | -2.5% | x | x | -0.4% | x | x
23 | Cc1ccc2c(C)c(C(=O)N3CCCC(C(N)=O)C3)oc2c1C (stereo unspecified) | -3.9 | -1.4% | 2% | 9% | 0.3% | u | 7.4
24 | COc1ccc(C(=O)N(Cc2ccco2)Cc2cccs2)c(O)c1 | -2.8 | -0.9% | -3% | u | -1.8%&-0.3% | 0% | 2.0
25 | CCN(C[C@H]1N[C@@](CC)(C(=O)OC)[C@H]2C(=O)N(Cc3ccccc3)C(=O)[C@@H]12)C(=O)COc1ccccc1 | -1.7 | 0.1% | -5% | x | 3.5% | x | x
26 | CNC(CC(C)C)C(=O)NC1C(=O)NC(CC(N)=O)C(=O)NC2C(=O)NC3C(=O)NC(C(=O)NC(C(=O)O)c4cc(O)cc(O)c4-c4cc3ccc4O)C(O)c3ccc(c(Cl)c3)Oc3cc2cc(c3OC2OC(CO)C(O)C(O)C2OC2C[C@](C)(N)C(O)C(C)O2)Oc2ccc(cc2Cl)C1O (stereo partly specified) | -2.2 | -0.4% | 4% | x | 0.3% | x | x
27 | O=c1[nH]c(C2CCN(S(=O)(=O)c3ccccc3)CC2)nc2c1nnn2Cc1ccccc1 | -0.1 | 2.1% | -27% | -7% | -0.6% | -6%[15.4 µM] | -1.1
28 | Cn1c(=O)[nH]c(=O)c2c1nc(N1CCNCC1)n2Cc1ccccc1 | -1.0 | 1.6% | 6% | 14% | 1.6% | 12%[15.4 µM] | 0.9
29 | CCn1ccc(C(=O)Oc2ccc(Cl)cc2)n1 | -0.1 | -1.2% | -28% | 27% | 1.4% | -24% | 4.7
30 | CCOc1ccc(NC(=O)CN2CCN(CC(=O)Nc3ccc(OC)cc3OC)CC2)cc1 | 6.3 | x | -7% | 13% | -0.9% | 18% | -3.9

Two neighbouring compounds out of the list so far, for reference:
item | Compound | D2 agonist | ClpP mod | gsp antag | Sfp PPTase inh | PINK1 modulator | gsp ag | Menin MLL FP FL
7 | CSc1ccccc1NC(=O)Cn1c([N+](=O)[O-])cnc1C | 0.9 | x | 4% | 21% | 0.7% | -8% | 2.4
8 | CC(C)C[C@H](NC(=O)[C@@H]1O[C@H]1C(=O)O)C(=O)NCCCCN=C(N)N | 1.1 | 2.2% | 8% | 7% | 1.0% | x | 1.9

The listing continues.
item | Compound | D2 agonist | ClpP mod | gsp antag | Sfp PPTase inh | PINK1 modulator | gsp ag | Menin MLL FP FL
31 | Cc1occc1-c1n[nH]c(=S)n1-c1ccccc1 | -2.5 | 1.1% | 7% | 13% | 2.1% | u | 3.1
32 | CN(Cc1ccccc1)C(=O)c1nc[nH]c1C(=O)N1CCc2ccccc2C1 | -0.1 | -0.3% | -5% | x | -0.8% | x | x
33 | CCN(C(=O)CSc1nc(N)cc(=O)[nH]1)c1c(N)n(Cc2ccccc2)c(=O)[nH]c1=O | -5.3 | 0.2% | 7% | x | -1.1% | -2%[15.4 µM] | x
34 | CCN(CC(O)COc1ccc(OCC(O)CN(CC)C2CCCCC2)cc1)C1CCCCC1 (stereo unspecified) | 10 | -1.3% | 11% | x | 2.0% | 4%[15.4 µM] | x
35 | CC(C(=O)Nc1ccc(C#N)cc1)N1CCN(C(=O)C2CC2)CC1 (stereo unspecified) | -1.5 | 0.8% | 13% | x | -0.5% | -31%[inhibitor] | x
36 | CCN(CC)C(=O)COc1coc(CN2CCN(c3ccccc3F)CC2)cc1=O | 2.5 | -0.4% | 17% | 6% | 1.1% | u | x
37 | Cc1cc(C)cc(Oc2nn[nH]n2)c1 | 1.2 | 0.8% | -1% | 4% | -1.9%[38.3 µM] | u | 1.4
38 | CCOc1ncccc1C(=O)NNC(=O)c1cccc(S(=O)(=O)Nc2ccc(OC)cc2)c1 | -6.0 | 0.3% | 6% | 19% | 0.2% | u | x
39 | CC(=O)c1nn(-c2ccc(C(F)(F)F)cc2)c(=O)[nH]c1=O | -0.9 | x | -13% | -15% | 0.1% | 2% | 0.8
40 | CC(=O)NC(Cc1c[nH]c2ccccc12)C(=O)N1CCc2ccccc2C1 (stereo unspecified) | -2.8 | -3.5% | -17% | 26% | 0.7% | 11% | -0.2
41 | Cc1ccc(NC(=O)CO/N=C/c2ccccc2C)c(C)c1 | 0.0 | x | -3% | 17% | 1.1% | 1% | -1.4
42 | Fc1ccc(Nc2ccc(-c3ccc(F)cc3)nn2)cc1 | 4.4 | 0.0% | -6% | 10% | -1.1% | 13% | 4.2
43 | O=C(O)c1ccc(CNS(=O)(=O)c2ccc3ccccc3c2)cc1 | 1.8 | x | -4% | 1% | -0.5% | 1%[15.4 µM] | 0.0
44 | COc1ccc(-c2nc(CS(=O)CC(=O)NCc3ccc(F)cc3)c(C)o2)cc1 (stereo unspecified) | -5.8 | -22% | 0% | 5% | 0.5% | -18% | -1.1
45 | NS(=O)(=O)c1ccc(-c2ccc(/C=C3\SC(=O)NC3=O)o2)cc1 | -3.4 | -21% | -28% | -1% | -0.1% | 2% | -2.6
46 | CC(C)c1ccccc1NC(=O)COc1ccc(C(=O)NCCc2ccccc2)cc1 | -0.1 | -3.5% | 4% | 26% | 0.1% | -17% | -0.4
47 | O=C(Nc1nc(-c2ccco2)c(-c2ccco2)s1)C1CC(=O)N(c2ccc3c(c2)OCCO3)C1 (stereo unspecified) | 0.2 | -8.9% | -3% | 10µM* | -1.2% | -34%[inhibitor] | 56[activator]
48 | COc1cccc(-n2c(COc3ccccc3C)nnc2SCC(=O)O)c1 | -2.2 | -0.3% | 4% | 2% | -6.1%[38.3 µM] | -5% | 1.2
49 | O=C(CCc1ccccc1)NNC(=O)C12CC3CC(CC(C3)C1)C2 | -2.2 | -2.1% | -3% | -2% | -2.1%[38.3 µM] | -74%[inhibitor] | 6.0
50 | CC(C)NC(=S)N/N=C/c1cc(Br)ccc1O | 5.4 | -16% | 9% | 7% | 27% | 27% | 0.0
51 | CCNC(=O)C(C)Oc1ccc(Cl)cc1Cl (stereo unspecified) | -4.1 | 1.7% | 15% | -5% | 2.4% | 18% | -1.9
52 | C=CCNc1nc(N)c([N+](=O)[O-])c(Nc2ccccc2OC)n1 | 6.6 | -1.2% | 2% | 16% | 0.3% | 18% | 9.0
53 | CCCNC(=S)Nc1cc2oc3ccccc3c2cc1OC | -7.8 | -4.6% | u | -7% | 0.2% | u | x
